Screens as filed in PubChem.
gsp antagonist: gsp mutant antagonism. gsp-mutant cells, cAMP HTRF, 30 min; control for the full effect not named in the record. 340,000 tested, 0.4% active. Potency, µM (highest dose often 76.9 µM), inactives show at the top dose activity change, negative = inhibition, usual class: inhibitors; active = falling curve of any shape with a large fitted effect; inconclusive = falling curve, mostly with a smaller effect; inactive = flat or rising curve; cell line not stated here;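 further: intracellular cAMP measured with PDE inhibitor Ro 20-1724 present during compound exposure; potency means the concentration at half of the fitted maximal effect; on the % scale 0 is the no-effect control and ±100 the full control effect; nearly all actives have a fitted effect of over 65% in size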
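HTRF cAMP measurement after 30 min RT detection following 30 min, 37C compound treatment alongside […] (added as 300 uM solution) in G418-selected cells seeded at 2000/well and grown 16–24 h.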
Menin MLL FP FL: menin-MLL binding inhibition, fluorescein peptide. Fluorescence polarization, fluorescein-MLL peptide displacement from menin. 290,000 tested, under 10 active. FP activity change, % at 61.4 µM; inconclusive = falling polarisation curve, or a change in total fluorescence; inactive = total fluorescence flat and polarisation flat or rising; no compound was filed as active; the % refers to the polarisation; negative = inhibition;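 further: % of control where 0% means no effect; inhibitors lower the polarisation; unlabelled MLL peptide was the positive control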
ClpP mod: qHTS Assay for Activators of ClpP; ATP-dependent Clp protease proteolytic subunit (Bacillus subtilis (strain 168)), P80244; purified B. subtilis ClpP, FRET peptide cleavage, 20 min; Potency, µM (doses to about 57.5 µM), inactives show top-dose activity change, negative = active; 340,000 tested, 1.9% active; AID 651965, 2013; active = well fitted falling curve with a large enough effect; inconclusive = small, poorly fitted or top-dose-only effect; inactive = no such curve, though single readings can be large or run the other way; further: potency means the concentration at half of the fitted maximal effect; the source files actives as falling curves though it sought activators and does not explain the sign; nearly all actives have a fitted effect of over 65% in size; many hits overshoot -100%
Target sequence (P80244 whole entry, looked up): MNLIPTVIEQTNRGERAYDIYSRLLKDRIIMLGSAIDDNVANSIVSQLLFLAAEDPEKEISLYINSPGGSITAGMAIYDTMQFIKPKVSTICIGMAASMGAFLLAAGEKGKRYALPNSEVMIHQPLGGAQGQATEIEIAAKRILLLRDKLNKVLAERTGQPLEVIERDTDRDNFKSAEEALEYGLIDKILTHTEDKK
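Purified B. subtilis ClpP, 10 microg/mL final in Tris/HCl pH8 with KCl, BSA, glycerol and Tween-20, cleaved an Abz/nitrotyrosine-quenched decapeptide. Fluorescence (ex 320, em 430) was read at 0 and 20 min at room temperature. Delta was normalized to 5.8 microM ADEP and DMSO/no-enzyme controls.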
PINK1 modulator: changes PINK1 expression; PINK1 immunofluorescence, high-content cytometry, 24 h; 410,000 tested, 0.2% active; Potency, µM (titrated, usually from 76.6 µM), inactives show top-dose activation (PINK1 increase), hits mostly activators; active = well fitted activation curve with a large enough effect; inconclusive = small, poorly fitted or top-dose-only effect; inactive = flat fitted curve, though single readings scatter; cell line not stated here;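 further: potency means the concentration at half of the fitted maximal effect; % of control where 0% means no effect; nearly all actives have a fitted effect of over 65% in size; a mitochondrial uncoupler was the plate control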
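A stable cell line was treated with compounds at 5 concentrations for 24 hours, with CCCP as control. PINK1 levels and mitochondrial localization were measured by immunofluorescence with mitochondrial, cell and nuclear markers after fixation, read by laser-scanning cytometry.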
D2 ag: agonists of human D2 dopamine receptor (beta-arrestin) | P14416 | DiscoveRx PathHunter D2 beta-arrestin, luminescence, 90 min; 100% = 57 uM dopamine signal | activation, % (concentration not given with the values) | 360,000 tested, 0.084% active | AID 624465; in the data active = activation above about 40%; inconclusive = about 15% to 40%; inactive = below about 15%; further: compound concentration not given in the record; the text of the record calls up to 30% inactive
Target sequence (P14416 whole entry, looked up): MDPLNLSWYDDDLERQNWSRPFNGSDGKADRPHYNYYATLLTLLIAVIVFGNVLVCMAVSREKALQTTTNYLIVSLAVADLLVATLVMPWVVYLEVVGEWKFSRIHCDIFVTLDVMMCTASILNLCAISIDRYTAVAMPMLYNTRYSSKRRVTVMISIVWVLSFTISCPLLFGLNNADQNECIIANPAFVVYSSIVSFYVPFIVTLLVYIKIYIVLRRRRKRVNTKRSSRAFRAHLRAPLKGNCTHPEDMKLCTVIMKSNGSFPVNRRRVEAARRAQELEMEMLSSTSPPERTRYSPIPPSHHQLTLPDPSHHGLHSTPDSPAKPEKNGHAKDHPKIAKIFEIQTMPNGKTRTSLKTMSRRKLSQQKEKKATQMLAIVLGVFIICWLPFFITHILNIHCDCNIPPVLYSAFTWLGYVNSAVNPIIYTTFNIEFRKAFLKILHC
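DiscoveRx PathHunter D2 beta-arrestin cells (2,100/well) attached overnight, then compound-stimulated 90 min at 37 C in HBSS/10 mM HEPES/0.1% Tween-20 buffer; beta-galactosidase complementation read by luminescence after 1 h at ambient temperature. Dopamine 57 uM final (EC100) as control.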
gsp ag: agonists of gsp mutant (McCune-Albright syndrome); gsp mutant cells, cAMP HTRF, 30 min; control for the full effect not named in the record; Potency, µM (titrated, usually from 76.9 µM), without a hit: at the top dose activation (cAMP increase), hits mostly activators; 340,000 tested, 0.13% active; AID 624287; active = well fitted activation curve with a large enough effect; inconclusive = small, poorly fitted or top-dose-only effect, or another doubt; inactive = no such curve, though single readings can be large or run the other way; cell line not stated here;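 further: phosphodiesterase inhibitor Ro 20-1724 added with compounds to block cAMP breakdown; potency means the concentration at half of the fitted maximal effect; nearly all actives have a fitted effect of over 60% in size; about a fifth of the inactives were tested at one dose only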
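Cells in DMEM/10% FBS with G418 were pretreated with compounds in DMSO plus […] (300 uM stock) for 30 min at 37C. cAMP was measured by HTRF (cAMP-d2 plus anti-cAMP antibody-K) after 30 min at room temperature.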
Sfp inh: inhibitors of Bacillus subtilis Sfp phosphopantetheinyl transferase; Biochemical Sfp PPTase activity, qHTS; Potency, µM, without a hit: max response, negative = inhibition, most hits filed as inhibitors; 310,000 tested, 3.5% active; active means well fitted inhibition curve with a large enough effect; inconclusive means small, poorly fitted or top-dose-only effect, or another doubt; inactive means no such curve, though single readings can be large or run the other way;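 further: the enzyme is Sfp with the accession as filed and its product quenches rhodamine fluorescence; potency means the concentration at half of the fitted maximal effect; 0% = enzyme reaction without inhibitor and -100% = no enzyme wells; top concentration of the series not given in the record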
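Fluorescence-quenching assay with 15 nM Sfp, 5 uM rhodamine-CoA and 12.5 uM BHQ-2-labelled ybbR peptide in pH 7.6 Hepes/MgCl2 buffer. Enzyme was pre-incubated with compound for 15 min at room temperature. Rate was taken from the 30-min fluorescence change (525/598 nm).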
* hit, by the source's call; u = inconclusive; x = no result given; & = joins results of further samples; [ ] = remark or other dose.

SMILES	gsp antagonist	Menin MLL FP FL	ClpP mod	PINK1 modulator	D2 ag	gsp ag	Sfp inh
Cc1sc(NC(=O)CN(Cc2ccc(F)cc2)C(=O)C(C)(C)C)c(C(N)=O)c1C	2%	1.4	x	6.0%	-3.3	u	14%
CCN1CCN(C(CNS(=O)(=O)c2ccc(OC)c(C)c2)c2cccnc2)CC1 (stereo not drawn)	-1%	x	-0.7%	-0.1%	-2.6	13%[15.4 µM]	11%
Cc1ccc(S(=O)(=O)NN2Cc3ccccc3C2=N)cc1	16%	-6.1	x	-0.4%	-6.3	-6%[15.4 µM]	u
O=C(Cn1c(=O)sc2ccccc21)Nc1ccccc1C(=O)O	-8%	-0.1	-19%	-0.6%	-2.8	1%	-3%
CCS(=O)(=O)c1nc(S(=O)(=O)c2ccc(C)cc2)c(N2CC(C)CC(C)C2)s1 (stereo not drawn)	-16%	x	-1.6%	-1.4%	-1.4	u	-1%
CN(C)S(=O)(=O)c1ccc(N2CCCC2)c(C(=O)NCC(=O)Nc2ccc(F)c(F)c2)c1	-14%	x	-1.6%	3.1%	-4.0	29%	x
O=C(Nc1ccc(S(=O)(=O)Nc2ccccc2F)cc1)N1CCCCC1	21%	x	0.7%	0.6%	-2.6	-9%[15.4 µM]	2%
S=c1[nH]nc(C2CCCCC2)o1	-6%	-2.7	x	-0.5%	-8.6	17%[15.4 µM]	-28%
COc1ccccc1NC(=O)N(C)C[C@H]1OCc2cn(nn2)CCCC(=O)N([C@@H](C)CO)C[C@@H]1C	x	x	-1.3%	1.0%	-8.6	-1%	x
Cc1cc(C)cc(OCC(=O)Nc2cc(NC(=O)COc3cc(C)cc(C)c3)cc(C(=O)O)c2)c1	-1%	-0.9	23%	0.8%	-0.9	6%[15.4 µM]	2%
Nc1cccc2cc(-c3ccccc3)oc12	0%	x	3.5%	7.3%	6.6	-31%[inhibitor]	x
COc1ccc(S(=O)(=O)Nc2ccc(N3CCOCC3)cc2)cc1[N+](=O)[O-]	1%	1.0	x	1.0%	2.1	-1%	-17%
Cc1cccn2c1nc(=S)n2C(=O)c1ccco1	7%	9.5	x	1.4%	-4.6	-6%[15.4 µM]	-2%
COc1cc(C=O)ccc1OC(=O)c1ccc(C(C)C)cc1	-12%	2.7	-1.1%	4.0%	-1.5	2%[15.4 µM]	u
CC(C)(C)c1ccc(S(=O)(=O)N2C=CC(C(F)(F)F)=NCC2)cc1	-17%	1.1	-1.0%	-1.1%	-3.7	-24%	15%
CN(CC(=O)Nc1ccccc1Br)C(=O)CN1CCN(Cc2ccc(Cl)cc2)CC1	4%	x	0.9%	2.4%	-3.7	13%	x
CN(C(=O)c1ccco1)c1nc(-c2ccccc2)cs1	u	-4.2	0.3%	6.9%	3.7	1%	1%
O=C(/C=C/c1ccc(Cl)cc1)Nc1ccc(CN2CCOCC2)cc1	-1%	3.4	x	3.8%	5.4	-1%	19%
COc1ccc(-n2ccnc2)cc1	11%	0.2	-1.5%	5.3%	-0.8	-80%[inhibitor]	24%
CN(C)C(CNC(=O)c1ccc(NS(=O)(=O)c2ccc3[nH]c(=O)[nH]c3c2)cc1)c1ccccc1 (stereo not drawn)	8%	x	1.1%	-2.2%	-1.8	-41%[inhibitor]	x
O=C(N/N=C/c1cc([N+](=O)[O-])ccc1O)C12CC3CC(CC(C3)C1)C2	-11%	3.7	0.0%	1.3%	-8.7	-28%	19%
CS(=O)(=O)N1CCc2cc(C(=O)Nc3cccc([N+](=O)[O-])c3)ccc21	-31%	-1.2	0.5%	-0.7%	1.3	-6%[15.4 µM]	-1%
Nn1cnnc1N/N=C\c1ccc(-c2ccccc2[N+](=O)[O-])o1	u	0.9	-0.5%	0.7%	15	-17%	45µM*
CSc1ccc(-c2c(C#N)c(N)nc3c2CCCC3)cc1	8%	1.5	-0.8%	-1.2%	-2.4	u	0%
COc1ccc(-c2cccc(NS(=O)(=O)c3cc([N+](=O)[O-])c(C)c([N+](=O)[O-])c3)c2)nn1	-17%	x	0.5%	10%	8.8	u	x
(continued)
SMILES	gsp antagonist	Menin MLL FP FL	ClpP mod	PINK1 modulator	D2 ag	gsp ag	Sfp inh
CC1=C(C(N)=O)C(c2ccccc2)n2nc(-c3cccs3)nc2N1 (stereo not drawn)	6%	1.2	u	3.6%	-3.8	25%	11%
Cc1oc(C(C)(C)C)cc1C(=O)N1CCN(c2ccc(C(F)(F)F)cn2)CC1	-13%	-0.3	-4.5%	u	-4.1	30%	11%
CCOc1ccc(CN2CCC(C(=O)Nc3cccc(-c4ccn[nH]4)c3)CC2)cc1Cl	-4%	x	-5.1%	0.5%	-1.8	5%	15%
O=c1c2nnn(-c3cccc(F)c3)c2ncn1Cc1ccccn1	-7%	-5.5	x	1.0%	1.0	u	6%
CN(C)/N=C/C=C1\CC/C(=C\c2ccc(Br)cc2)C1=O	-3%	18	-0.4%	7.8%	-4.8	29%	-8%
COc1cc(CNc2ccc(N3CCN(C(C)=O)CC3)cc2)ccc1OCc1ccc(F)cc1	-24%	-1.1	x	-2.2%	u	9%	-24%
CCOC(=O)c1c(NC(=O)CSc2ncccn2)sc2c1CCN(Cc1ccccc1)C2	u	7.5	-6.0%	0.7%	-2.4	u	-21%
O=C(O)CCC(=O)NCc1ccc2[nH]c3c(c2c1)CCCC3	2%	u	-23%	1.1%	0.5	-2%	u
COc1cccc(CN(C)C(=O)c2ccc(S(=O)(=O)Nc3ccccc3C)cc2)c1OC	x	x	3.4%	1.0%	-1.0	-166%[inhibitor]	x
O=C(O)c1cccc(CSc2ncn[nH]2)c1	3%	0.9	0.1%	1.5%	2.6	-24%	-19%
Cc1c(C)c2cccnc2c2ncccc12	-10%	x	-20%	0.1%	-3.3	8%	x
CNC(=O)COC(=O)CCC(=O)c1ccc(Cl)cc1	4%	-2.6	0.6%	1.9%	-8.4	-8%	20%
O=C(COc1ncnc2ccccc12)N1CCN(S(=O)(=O)c2ccccc2)CC1	9%	-5.3	-0.7%	-1.2%	-1.8	-36%[inhibitor]	6%
Cc1ncc(CN2CCCC(C(=O)Nc3ccc(-n4ccnc4C)cc3)C2)cn1 (stereo not drawn)	2%	1.0	-0.7%	-0.7%	-4.5	49%	8%
Cc1cc(C(=O)Nc2ccccn2)cs1	2%	-0.2	0.2%	3.0%[38.3 µM]	-1.7	-42%[inhibitor]	1%
Nc1c([N+](=O)[O-])c(=O)sc2ccccc12	7%	0.8	x	-2.4%	1.4	2%	5%
O=C(CCC1CCCN(Cc2ccc3c(c2)OCCO3)C1)NCc1ccccc1F (stereo not drawn)	12%	0.5	-0.2%	3.3%	0.2	-34%[inhibitor]	17%
O=C(N/N=C/c1cccs1)c1[nH]ncc1Br	-2%	-0.1	-1.3%	0.9%	-3.9	u	13%
COCCn1cnc2c1c(=O)n(Cc1ccc(C#N)cc1)c(=O)n2Cc1ccccc1	-19%	-2.8	x	2.0%	0.0	14%	6%
CCC(CCC(=O)Nc1cccc([N+](=O)[O-])c1)C(=O)O (stereo not drawn)	5%	2.0	-2.0%	0.7%	-8.3	38%	16%
CCN(CC(=O)Nc1ccc(NC(C)=O)cc1)C(=O)c1ccc(NC2CC2)c([N+](=O)[O-])c1	6%	x	0.8%	1.6%	-8.6	4%	x
COc1ccc(OC)c(NC(=O)C2CCN(c3nc(C)cc(C)n3)CC2)c1	14%	-0.4	-25%	16%	-3.2	4%	8%
O=C(CCCCCNC(=O)c1ccccc1Cl)N/N=C/c1ccco1	8%	0.2	x	0.0%	-1.2	-8%[15.4 µM]	29%
CCSc1nc(COC(=O)NC)c(COC(=O)NC)n1C	-3%	x	2.3%	0.3%	-2.4	-4%	x
CC(C)NC(=S)NCc1cccs1	14%	4.1	-1.3%	-0.1%	3.9	-16%	0%
The list goes on:
SMILES	gsp antagonist	Menin MLL FP FL	ClpP mod	PINK1 modulator	D2 ag	gsp ag	Sfp inh
CCOc1ccccc1-n1c(=O)c2ccccc2c2ccccc2c1=O	-10%	8.3	-5.9%	0.3%	-0.9	-4%	5%
COc1ccc(NC(=O)c2ccccc2NC(=O)c2ccccc2)cc1	-9%	5.0	3.7%	9.9%	-11	-28%	10%
COc1ccc([C@@H]2CC(=O)[C@@H]3CN(S(=O)(=O)c4ccc(C)cc4)[C@H](c4cccc(Cl)c4)C[C@@H]3N2S(=O)(=O)c2ccccc2)cc1	x	x	0.5%	0.1%	-3.3	x	x
COC(=O)c1c(NC(C)=O)sc(C(=O)N2CCOCC2)c1C	6%	1.0	x	-0.7%	-0.2	u	-6%
CCCNC(=O)CN1C(=O)COc2ccc(S(=O)(=O)N3CCCCCC3)cc21	-1%	x	-1.2%&-0.6%	0.0%&0.7%	-2.5	u	14%
CCOC(=O)C1=C(COC(=O)c2ccc(Br)o2)NC(=O)NC1C (stereo not drawn)	7%	-1.6	2.4%	1.6%	1.2	-72%[inhibitor]	17%
COCCn1c(=NC(=O)c2cc(-c3cccs3)nc3ccccc23)sc2cc(S(N)(=O)=O)ccc21	-7%	12	0.9%	5.5%	-0.9	2%[15.4 µM]	7%
COc1cc(C=O)c(Cl)cc1OCC(N)=O	2%	-0.1	-22%	0.8%	-4.9	-39%[inhibitor]	22%
CC(=O)c1cc2c(cc1NC(=O)c1c(-c3ccccc3)noc1C)OCO2	8%	5.5	-3.2%	12%	-1.2	47%	18%
Cc1ccc(NS(=O)(=O)c2c(C)[nH]c(C)c2C(=O)N2CCCCC2)cc1C	6%	-0.7	1.2%	0.0%	-0.6	u	21%
